Screening data (PubChem)
AID504770 = growth inhibitors of E. coli YBA685 in a screen for V. cholerae RctB (chromosome II replication) inhibitors | actives 0.27% (n = 130,000) | z-score (concentration not given with the values) | AID 504770 | E. coli YBA685 rctB-dependent plasmid, OD600 growth, 3 h; hits give low values;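 active means z-score under -2 on both plates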;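 further: wells of about 30 µL received 100 nL stock; score is relative to mean and SD of the test wells; the first replicate is given; strong numbers were not always called active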
CapD inh = blocks the Bacillus anthracis CapD enzyme. AID 492967. actives 0.23% (n = 140,000). purified CapD enzyme, fluorescence intensity read-out; hits give low values; some hits fall short of the stated cut. z-score (test concentration not listed);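 active means z-score under -4 in either of two replicates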;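 further: stock transfer was 100 nL into about 40 µL; score is relative to mean and spread of the plate; one replicate is shown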
The depositor's hits bear a star; · = no result given; & = joins results of further samples.

No.	compound	AID504770	CapD inh
1	CC1CC(C)CN(c2ncnc3nc[nH]c23)C1 (stereo not drawn)	0	-0.52
2	Cc1cc(-c2ccccc2)cnn1	·	-0.43
3	O=C(c1c(F)cccc1F)N1CCC(c2nc(-c3ccncc3)no2)CC1	·	-0.49
4	CCc1ccc(NC(=O)CSc2nc3cc(C(=O)OC)ccc3c(=O)n2CCc2ccc(S(N)(=O)=O)cc2)cc1	·	1.4
5	O=C(COC(=O)Cc1ccccc1)Nc1ccc(Cl)cn1	-0.6	·
6	O=C(COc1nc2ccccc2nc1N1CCOCC1)N1CCc2ccccc2C1	0.15	·
7	O=C(CCc1nc2ccccc2s1)NC1CCCc2ccccc21 (stereo not drawn)	0.05	-1.1
8	O=C(Nc1ccccc1C(F)(F)F)N1CCN(Cc2cccc(Cl)n2)CC1	·	-0.3
9	CCCn1c(SCc2nc3ccccc3[nH]2)nc2ccccc21	0.85	·
10	O=C(O)C1CC=CCC1C(=O)N1CCOCC1 (stereo not drawn)	0.25	-0.62
11	COc1ccc(C2(C(=O)NC(C)C)CCOCC2)cc1	1.6	·
12	Cc1nc(C)c(-c2ccnc(/N=C/NO)n2)s1	-1.1	-1.1
13	CCn1c(C(=O)NCc2ccccc2)cc2oc3ccccc3c21	-0.45	64
14	Cc1ccc(S(=O)(=O)NC(C)C(c2cccs2)N2CCN(C)CC2)cc1 (stereo not drawn)	0.25	·
15	Cc1cc(=O)[nH]c(SCC(=O)N2CCCC2)n1	-0.35	0.27
16	Cc1ccc(NC(=O)CSc2nc3ncccc3[nH]2)cc1	1.3	0.85
17	COCCNC(=O)c1ccc2c(=O)n(Cc3ccco3)c(SCc3cc(C(C)=O)ccc3OC)nc2c1	·	-0.51
18	CCn1c(C(=O)O)c(CC(=O)N2CCC(Cc3ccccc3)CC2)c2ccccc21	·	0.37
19	CCN(C(=O)c1sc2nc3n(c(=O)c2c1C)CCCC3)c1ccccc1	0.05	-0.16
20	COc1cc(OC)c(CN2CCN(C(=O)OCc3ccc([N+](=O)[O-])c(C)c3)CC2)c(OC)c1	·	-0.16
21	O=C(COc1cc(O)c2c(=O)cc(-c3ccccc3)oc2c1)c1ccccc1	0.2	30
22	COc1cccc(C2C(C#N)=C(N)Oc3c2c(=O)oc2ccccc32)c1 (stereo not drawn)	1	0.45
23	O=C1c2ccccc2C(=O)N1CC1CCCN2CCCCC12 (stereo not drawn)	1.7	-0.49
24	Cc1cc(=O)n(CC(=O)Nc2cc(Cl)ccc2C)c(C(C)C)n1	-0.65	·
25	O=c1oc2c(Cl)cc(Cl)cc2cc1-c1nnc(-c2ccccc2)o1	·	0.42
26	CC(=O)N1CCN(C2=NC(=O)C(=C3CCCCC3)S2)CC1	-0.45	·
27	CC(=O)Nc1c(O)n(C)c2ccccc12	2	0.09
28	CCc1ccc(C2CC(=O)Nc3cc(C)c(C)cc32)cc1 (stereo not drawn)	·	-0.2
29	CC1(C)OC2C(CO)OC(n3cnc4c(=O)[nH]cnc43)C2O1 (stereo not drawn)	-0.65&0.75	0.2&0.38
30	Cc1cccc(OCC(O)CN2CCN(c3ccccc3)CC2)c1 (stereo not drawn)	-0.25	-0.19
31	COc1ccc(-c2cc(C(=O)Nc3cccc(C(C)=O)c3)c3ccccc3n2)cc1	·	-0.3
32	CCN(CC)c1ccc(C2C(C#N)=C(N)N(c3ccc([N+](=O)[O-])cc3)C3=C2C(=O)CCC3)cc1 (stereo not drawn)	·	-0.03
33	COCCn1c(=NC(=O)C2COc3ccccc3O2)sc2ccccc21 (stereo not drawn)	-0.2	-0.14
34	O=C(CC1(c2ccc(Cl)cc2)C(=O)c2ccccc2C1=O)N1CCOCC1	-0.95	·
35	Cc1nn(Cc2ccccc2Cl)c(C)c1NC(=O)c1noc2c1CC(C(C)(C)C)CC2 (stereo not drawn)	-0.95	-0.07
36	CC(C)C(=O)Nc1cccc(-c2cn3cccnc3n2)c1	-0.4	113
37	CCOC(=O)[C@H](CCc1ccccc1)N[C@@H](C)C(=O)N1CCC[C@H]1C(=O)O	0	0.3
38	CN(C)c1ccc(-c2nc(-c3cc4ccc(O)cc4oc3=O)cs2)cc1	-0.25	2
39	c1ccc(NCc2nnc3n2CCCCC3)cc1	-0.15	-0.32
40	O=C(COC(=O)c1ccc(S(=O)(=O)N2CCCC2)cc1)NCc1ccccc1	0.1	·
41	CCN1CCN(C(=O)CCC(=O)N2CC3CCCN3c3ccccc32)CC1 (stereo not drawn)	0.6	-0.55
42	CC(Sc1nc2sc3c(c2c(=O)[nH]1)CCCC3)C(=O)Nc1nccs1 (stereo not drawn)	0.05	·
43	S=c1[nH]nc(COc2ccccc2Cl)n1C1CC1	0.65	·
44	O=C(/C=c1/[nH]/c(=C/c2ccc(F)cc2)c(=O)[nH]c1=O)c1ccccc1	0.95	-0.91
45	CC(C)(C)OC(=O)N1CCCN(S(=O)(=O)c2ccc(-n3cccn3)cc2)CC1	-0.25	0.56
46	CCc1ccc(NC(=O)C(C)OC(=O)c2cccc(N(C)C)c2)cc1 (stereo not drawn)	-0.75	32
47	CCS(=O)(=O)CCSc1nc(C)cc(C)c1C#N	1.5	-0.33
48	Cc1cc(CSc2ccccc2C(=O)O)on1	0.6	·
49	NC(=O)C1(N2CCCCC2)CCN(C(=O)c2ccc3c(=O)n(Cc4ccc5c(c4)OCO5)c(=S)[nH]c3c2)CC1	·	-0.12
50	CC(C)CN1C(=O)/C(=C/c2c(N3CCN(CCO)CC3)nc3ccccn3c2=O)SC1=S	·	-2.1
51	COc1ccc(OCC2CN=C(c3ccccc3CO)O2)cc1 (stereo not drawn)	-0.65	0.23
52	Cc1ccc(Oc2nc(SCc3ccc(Cl)cc3)nc3c2CCCC3)cc1	·	0.15
53	Cc1ccc(-n2nc(CC#N)c(C#N)c2N)cc1	0.15	·
54	O=C(O)C1OC(Oc2cc(O)c3c(=O)cc(-c4ccccc4)oc3c2O)C(O)C(O)C1O (stereo not drawn)	-0.55	-1.9
55	O=C(COc1ccc(Cl)cc1)NCc1nnc(SC/C=C/c2ccccc2)o1	0.2	-0.95
56	Cc1cc(C)nc(OC(Cc2ccncc2)c2ccc(C(C)(C)C)cc2)n1 (stereo not drawn)	·	-0.2
57	O=[N+]([O-])c1ccccc1S(=O)(=O)NCCSc1nc2ccccc2s1	·	0.45
58	CCOC(=O)c1cc(-c2csc(CS(C)(=O)=O)n2)on1	-0.4	10
59	S=C(SN1CCOCC1)N1CCOCC1	-0.55	0.27
60	CCN(CC)C(=O)CSc1nc(-c2ccccc2)cc(=O)[nH]1	-0.65	-0.09

Remaining list, next part
No.	compound	AID504770	CapD inh
61	CCN1CCN(c2ccc(NC(=O)COc3ccccc3)cc2)CC1	2.3	·
62	Cn1nccc1C(=O)OCC(=O)Nc1ccccc1Cl	1.3	·
63	Cn1c(=O)c2c(nc(NCc3ccc4c(c3)OCO4)n2Cc2ccccc2Br)n(C)c1=O	·	0.69
64	Cc1cc(C)c2c(n1)CC(C)(C)CC2=O	0.95	0.8
65	COc1ccc2[nH]c(=O)c(CN(CCCN3CCOCC3)C(=O)NCc3ccccc3)cc2c1	-0.1	·
66	Cc1sc2nc(-c3cccs3)oc(=O)c2c1C	3.5	-0.72
67	CN(Cc1ccccc1)C(=O)c1ccc2c(c1)OCO2	0.5	0.21
68	CCN(CC)c1cc(Nc2ccc(C)c(Cl)c2)c([N+](=O)[O-])c2nonc12	·	0.29
69	Cc1ccccc1OCCN1C(=O)NC(C)(c2ccccc2)C1=O (stereo not drawn)	0.1	·
70	CC(Sc1nc(N2CCOCC2)c2c(c1C#N)CC(C)(C)OC2)C(=O)Nc1ccccc1 (stereo not drawn)	1.5	0.21
71	CC(C)CCN1CCC(CNS(=O)(=O)c2ccc(-c3cc(C(F)(F)F)no3)s2)CC1	-2.1	-0.45
72	O=C(NCc1cccc(C(F)(F)F)c1)c1cccn(Cc2ccccc2)c1=O	·	72
73	Cc1c(C)c(C)c(C(O)c2ccccc2)c(C)c1C (stereo not drawn)	-0.95	-0.58
74	CCCn1c(=O)c(C(=O)Nn2c(CC)nc3ccccc3c2=O)c(O)c2ccccc21	·	3.2
75	O=C(O)c1cccc(S(=O)(=O)/N=C2/C=C(NS(=O)(=O)c3ccccc3)C(=O)c3ccccc32)c1	0.15	0.62
76	O=c1[nH]c2ccc(S(=O)(=O)NC3CCCCC3)cc2[nH]1	-0.35	·
77	Cc1cc(OCOc2ccc(Cl)c(C)c2)ccc1Cl	·	-0.07
78	CC(=O)N1CCN(c2ccccc2NC(=O)COc2ccccc2)CC1	-0.7	-0.32
79	FC(F)(F)c1cc(-c2cccs2)nc(-n2cc(Br)cn2)n1	-1.2	90
80	CC(C)NC(=O)c1cc(C(C)C)on1	-0.35	-0.35
81	O=C(O)CNC(=O)CC1S\C(=N/N=C/C=C/c2ccccc2)N(Cc2ccco2)C1=O (stereo not drawn)	-0.15	·
82	c1cc2c(cc1Nc1nc3nonc3nc1N1CCOCC1)OCO2	·	-1.9
83	COc1ccc(CN2CCCCC2COC(=O)N2CCN(c3cc(C(F)(F)F)nc4cc(C(C)(C)C)nn34)CC2)cc1Br (stereo not drawn)	·	10
84	COCCNS(=O)(=O)c1ccc(S(=O)(=O)N2CCCCC2)cc1	2	·
85	COC(=O)c1ccc(COC(=O)/C=C/c2cccs2)o1	0	·
86	CCOC(=O)c1sc2nc(CC(=O)OC)nc(NC3CCCCCC3)c2c1C	·	13
87	N#CCSc1ccc2nnc(-c3ccncc3)n2n1	-0.15	0.3
88	O=C(O)/C=C/C(=O)N(Cc1ccccc1)Cc1ccco1	0.25	-0.12
89	Cc1oc(-c2ccccc2)nc1C(=O)OCc1nc2ccccc2c(=O)n1CC#N	-1.1	·
90	COCc1c(C(=O)OC)nnn1-c1nonc1N	1.9	0.09

Four structures already listed, sorted by heavy-atom count, descending:
No.	compound	AID504770	CapD inh
74	CCCn1c(=O)c(C(=O)Nn2c(CC)nc3ccccc3c2=O)c(O)c2ccccc21	·	3.2
88	O=C(O)/C=C/C(=O)N(Cc1ccccc1)Cc1ccco1	0.25	-0.12
62	Cn1nccc1C(=O)OCC(=O)Nc1ccccc1Cl	1.3	·
87	N#CCSc1ccc2nnc(-c3ccncc3)n2n1	-0.15	0.3

(further entries)
No.	compound	AID504770	CapD inh
91	CCSCCOC(=O)C1=C(C)NC2=C(C(=O)CC(C)(C)C2)C1c1ccc(C(=O)OC)cc1 (stereo not drawn)	·	42
92	O=C(NC(Cc1ccccc1)C(=O)O)C1CCCCC1 (stereo not drawn)	-0.9	0.06
93	COc1ccc(Cl)cc1C(=O)N1CCCC1	0.05	·
94	Cc1cc(S(=O)(=O)NC2CCCCNC2=O)c(C)s1 (stereo not drawn)	0	0.44
95	CCCn1c(SC(C(=O)NC(=O)NC)c2ccccc2)n[nH]c1=O (stereo not drawn)	-0.1	·
96	O=[N+]([O-])c1cccc2c1OC1(N3CCOCC3)CCCCC1=C2 (stereo not drawn)	·	-0.12
97	CC1CC(C)CN(S(=O)(=O)c2ccc(Cl)c(C(=O)O)c2)C1 (stereo not drawn)	0.25	·
98	CC(=O)Nc1ccc(N2C(=O)C=CC2=O)cc1	-2.5*	-0.15
99	Cc1cccc(C(CC(=O)NC2CC2)n2cccc2)c1 (stereo not drawn)	0	0.22
100	COc1ccc(NS(=O)(=O)c2cc(C(=O)N3CCN(C(C)=O)CC3)ccc2Cl)cc1	0	·
101	COc1ccc(OC)c(C=C2C(=O)OC(C)(C)OC2=O)c1	·	-0.57
102	CCc1c(C)[nH]c(C(=O)OCc2ccccc2)c1C	-0.45	0.07
103	CSc1nc(-c2ccccc2)c(C#N)c(N(C)C2CCCCC2)n1	-1.6	0.4
104	CC(C)C(=O)N1C(=O)c2cccc3c(S(=O)(=O)N(C)C)ccc1c23	-0.65	·
105	CCOC(=O)c1cc(C#N)c(C)nc1N1CCN(C(=O)OCC2CCCCN2Cc2ccc(N(C)C)c3ccccc23)CC1 (stereo not drawn)	·	20
106	Cc1nc(Cc2nnc(SC/C(O)=C(\C#N)c3nc4ccccc4[nH]3)o2)cs1	0.65	·
107	CC1(C(=O)NN)CC1C(=O)NN (stereo not drawn)	·	0.14
108	CCOC(=O)c1c(C)[nH]c(C)c1C(=O)COC(=O)c1ccc(N2CCCC2=O)cc1	1.3	·
109	N#Cc1ccc(CSc2nnc(-c3cccs3)n2CC2CCCO2)cc1 (stereo not drawn)	-2.5*	·
110	COC(=O)CSc1nnc(-c2cccs2)n1-c1ccc(Cl)cc1	-0.7	0.51
111	CCC(C)n1c(SCc2ccccc2Cl)nc2ccsc2c1=O (stereo not drawn)	0.75	-0.51
112	CCN(C(=O)c1cc2cc(OC)ccc2oc1=O)C1CCCCC1	0.55	-0.1

One compound at a time, from the list above. Order of screens: AID504770 | CapD inh
`CCS(=O)(=O)CCSc1nc(C)cc(C)c1C#N` in the list: 1.5 | -0.33
`CCn1c(C(=O)O)c(CC(=O)N2CCC(Cc3ccccc3)CC2)c2ccccc21` in the list: · | 0.37
`NC(=O)C1(N2CCCCC2)CCN(C(=O)c2ccc3c(=O)n(Cc4ccc5c(c4)OCO5)c(=S)[nH]c3c2)CC1` in the list: · | -0.12

2 compounds picked at random from those above, as already listed:
No.	compound	AID504770	CapD inh
104	CC(C)C(=O)N1C(=O)c2cccc3c(S(=O)(=O)N(C)C)ccc1c23	-0.65	·
105	CCOC(=O)c1cc(C#N)c(C)nc1N1CCN(C(=O)OCC2CCCCN2Cc2ccc(N(C)C)c3ccccc23)CC1 (stereo not drawn)	·	20
